Source: PubChem
miR-122 sensor: miR-122 Renilla sensor signal increase in Huh7, primary screen, miR-122 inhibitor project, cell-based, single point, plate reader; activation (reporter increase), % at 12.5 µM; Huh7 miR-122 Renilla luciferase sensor, 48 h; neutral wells = 0, positive control = 100; AID 602342, 2012; 340,000 compounds, 0.3% hits;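 active = mean replicate activation score at least 90 and every replicate individually at or above 90; inconclusive = only one of the two criteria met; inactive = neither criterion met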;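 also: higher luciferase means less miR-122 activity so hits act as miR-122 inhibitors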
Casp6 inh: human caspase-6 inhibitors, primary screen, biochemical, VEID-R110 fluorescence, single point, set 2. P55212. purified caspase-6, Z-VEID-R110 cleavage fluorescence. inhibition, % at 12.5 µM. 350,000 compounds, 0.53% hits. AID 686996, 2013;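 active = mean inhibition across replicates at least about 35%, with every replicate also reaching that limit, limit read from the data; inconclusive = only one of the two criteria met; inactive = neither criterion met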;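 also: 0% = median of neutral control wells and 100% = no fluorescence left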
Target sequence (P55212 24-179 limits assumed): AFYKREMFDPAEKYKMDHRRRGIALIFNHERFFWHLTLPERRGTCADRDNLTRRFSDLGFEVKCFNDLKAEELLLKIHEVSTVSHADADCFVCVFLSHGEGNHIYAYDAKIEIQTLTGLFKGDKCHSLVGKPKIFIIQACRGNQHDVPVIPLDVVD
Target sequence (P55212 194-293 limits assumed): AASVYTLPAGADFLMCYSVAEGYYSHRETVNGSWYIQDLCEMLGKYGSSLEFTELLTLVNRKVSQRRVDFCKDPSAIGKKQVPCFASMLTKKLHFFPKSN
Cneo AK release: Cryptococcus neoformans cell lysis inducers, primary screen, AK release luminescence, single concentration; C. neoformans lysis, adenylate kinase release luminescence, 4 h; normalised: neutral wells 0, clomiphene wells 100; lysis activity, % at 15 µM; 360,000 compounds, 0.2% hits;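 active = mean lysis activity across replicates of at least 80%, whatever share of replicates individually reach that level; inactive = mean lysis activity below 80%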
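Assay system: log-phase C. neoformans yeast / Quantity: yeast cell density of 5 × 10^6 cells/mL / Medium: fresh YPD growth medium / Compound: single dose / Timing: static 4 h at 37 °C with compound, 1 h detection / Measured by: adenylate kinase release luminescence / Read-out: lysis from increased AK signal / Benchmarks: Clomiphene as positive lysis control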
An asterisk follows results filed as active; ? = inconclusive; . = not tested or not shown. A portion of the library, so the mix of outcomes need not match the whole.

| Compound | miR-122 sensor | Casp6 inh | Cneo AK release |
| --- | --- | --- | --- |
| COc1cc(S(=O)(=O)n2c(C)nc3ccccc32)ccc1F | -4.0 | . | 1.1 |
| O=C(NCCN1CCC(n2c(=O)[nH]c3cc(Cl)ccc32)CC1)c1ccc(F)cc1 | . | -1.1 | . |
| CC(C)CNC(=O)c1coc(=O)c(Br)c1 | 24.6 | . | -2.2 |
| O=C1NC[C@@H](c2ccccc2)OC(=O)[C@@H](Cc2ccc(F)cc2)CC/C=C/C[C@H]1CC(=O)N(CCO)Cc1ccccc1 | -6.6 | 2.3 | 8.7 |
| O=C1NC[C@@H](c2ccccc2)OC(=O)[C@@H](Cc2ccc(F)cc2)CC/C=C/C[C@@H]1CC(=O)N(CCO)Cc1ccccc1 | -12.2 | -0.1 | 3.2 |
| O=C(O)Cn1nc(C(F)(F)F)c2c1CCCCC2 | 0.0 | . | -2.3 |
| O=C1NC[C@H](c2ccccc2)OC(=O)[C@@H](Cc2ccc(F)cc2)CC/C=C/C[C@H]1CC(=O)N(CCO)Cc1ccccc1 | -8.2 | -2.9 | 6.3 |
| O=C1NC[C@@H](c2ccccc2)OC(=O)[C@H](Cc2ccc(F)cc2)CC/C=C/C[C@H]1CC(=O)N(CCO)Cc1ccccc1 | -4.2 | -0.1 | 0.4 |
| O=S(=O)(c1ccc2nc(SCc3cccc(Cl)c3)[nH]c2c1)N1CCOCC1 | 3.3 | 9.1 | -4.4 |
| Nc1nc2ccccc2n1S(=O)(=O)c1ccc(Cl)cc1 | -6.0 | 0.2 | 0.6 |
| O=C(CSc1ncnc2ccccc12)NCc1ccc2c(c1)OCO2 | . | 8.2 | . |
| COc1ccc(/C(N)=N/OC(=O)CSc2ccccc2)cc1 | -9.6 | . | -2.4 |
| O=C1NC[C@H](c2ccccc2)OC(=O)[C@H](Cc2ccc(F)cc2)CC/C=C/C[C@@H]1CC(=O)N(CCO)Cc1ccccc1 | . | -0.4 | 1.5 |
| Cc1nc2ccccc2n1S(=O)(=O)c1ccc(F)cc1 | ? | -11.4 | -0.2 |

Shown with two lines to a compound: part of the list above
Below each SMILES – miR-122 sensor, Casp6 inh, Cneo AK release
- CC(C)CNC(=O)c1coc(=O)c(Br)c1
→ 24.6, ., -2.2
- O=C1NC[C@@H](c2ccccc2)OC(=O)[C@@H](Cc2ccc(F)cc2)CC/C=C/C[C@H]1CC(=O)N(CCO)Cc1ccccc1
→ -6.6, 2.3, 8.7

Reformatted: 3 of the compounds above.
O=C(NCCN1CCC(n2c(=O)[nH]c3cc(Cl)ccc32)CC1)c1ccc(F)cc1
- miR-122 sensor: .
- Casp6 inh: -1.1
- Cneo AK release: .

CC(C)CNC(=O)c1coc(=O)c(Br)c1
- miR-122 sensor: 24.6
- Casp6 inh: .
- Cneo AK release: -2.2

O=C1NC[C@@H](c2ccccc2)OC(=O)[C@@H](Cc2ccc(F)cc2)CC/C=C/C[C@H]1CC(=O)N(CCO)Cc1ccccc1
- miR-122 sensor: -6.6
- Casp6 inh: 2.3
- Cneo AK release: 8.7

Structures from the list above with an aryl methoxy group, in the order listed:
| Compound | miR-122 sensor | Casp6 inh | Cneo AK release |
| --- | --- | --- | --- |
| COc1cc(S(=O)(=O)n2c(C)nc3ccccc32)ccc1F | -4.0 | . | 1.1 |
| COc1ccc(/C(N)=N/OC(=O)CSc2ccccc2)cc1 | -9.6 | . | -2.4 |
